VDR inhibitor: inhibitors of human vitamin D receptor; Potency, µM, for the others: max response, negative = inhibition, actives largely listed as inhibitors; VDR-SRC2-3 peptide fluorescence polarization, 2 h; 0.93% of 400,000 active; AID 504847; active means well fitted inhibition curve with a large enough effect; inconclusive means small, poorly fitted or top-dose-only effect, or another doubt; inactive means no such curve, though single readings can be large or run the other way; further: series mostly up to about 120 µM
Target sequence (P11473 whole entry, looked up): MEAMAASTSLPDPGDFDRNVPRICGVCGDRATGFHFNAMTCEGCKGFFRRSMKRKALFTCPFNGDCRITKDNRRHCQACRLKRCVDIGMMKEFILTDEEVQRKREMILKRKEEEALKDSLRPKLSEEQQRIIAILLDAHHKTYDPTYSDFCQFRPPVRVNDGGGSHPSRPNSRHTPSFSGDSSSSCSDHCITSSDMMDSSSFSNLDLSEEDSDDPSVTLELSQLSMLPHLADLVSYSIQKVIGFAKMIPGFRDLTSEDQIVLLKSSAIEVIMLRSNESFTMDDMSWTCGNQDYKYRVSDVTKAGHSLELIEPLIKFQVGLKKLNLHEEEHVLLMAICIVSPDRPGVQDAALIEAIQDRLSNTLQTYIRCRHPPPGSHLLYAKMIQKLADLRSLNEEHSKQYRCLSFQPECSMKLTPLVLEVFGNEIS
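Measured by FP: displacement of SRC2-3 coactivator peptide from VDR by library compounds, following a two-hour ambient incubation.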
* = called active by the depositor; ? = inconclusive; & = joins results of further samples; [ ] = another dose, or the depositor's remark. On the % scale 0 is the no-effect control and ±100 the full control effect; potency means the concentration at half of the fitted maximal effect. This is a subset; count on the stated rates, not on these rows.

VDR inhibitor | molecule
-30% | O=C1CC(Nc2ccc(N3CCOCC3)cc2)C(=O)N1c1cccc(C(F)(F)F)c1 (centres undefined)
-19% | CC(=O)Oc1ccc(Cl)cc1CN(C(C)=O)C1CCCCC1
12% | Cn1ncc2c1ncn1nc(CCc3ccccc3)nc21
1% | CCOC(=O)N1CCN(C(=O)CS(=O)(=O)c2cn(Cc3cccc(F)c3)c3ccccc23)CC1
10% | c1ccc(CN2CCC(Nc3nc(-c4cccs4)nc4ccccc34)CC2)cc1
-10% | O=C(c1ccc(COc2ccccc2)o1)N1CCN(S(=O)(=O)c2ccccc2Cl)CC1
-15% | CC(C)C12CN(C(=O)c3ccccc3[N+](=O)[O-])CC(C(C)C)(CN(C(=O)c3ccccc3[N+](=O)[O-])C1)C2=O
-7% | CCn1c(SCC(=O)c2cc(C)n(C)c2C)nnc1-c1ccccc1
6% | O=C(O)c1ccccc1C(=O)Nc1ccc(-c2csc(-c3ccccc3)n2)cc1
5% | O=C(C1CC1)N1CCN(c2ccc([N+](=O)[O-])cc2)CC1
? | COc1cccc(CNC(=O)CCNS(=O)(=O)c2ccc(Br)s2)c1
-6% | Cc1ccc(-n2nc3c(=O)n(CC(=O)NCc4ccco4)nc(C)c3c2C)cc1
13% | CC(=O)c1c(C(C)=O)c(C)n(-c2nc(-c3ccc(C)c(C)c3)c(C)s2)c1C
-1% | COc1cc(CN(C)CC2CCCN(CCc3cccc(C(F)(F)F)c3)C2)ccc1O (centres undefined)
-9% | Cc1noc(C)c1S(=O)(=O)NCc1ccc(CN(C)C)cc1
19% | O=C(O)c1ccc(-c2nc(-c3ccc(Cl)cc3Cl)cs2)cc1
9% | COc1ccc(C2c3sc(=O)[nH]c3SC3C4CCC(C4)C23)cc1 (centres undefined)
-16% | COc1ccc(C(OC(=O)c2ccco2)C(=O)NCC2CCCO2)cc1 (centres undefined)
17% | COC(=O)c1nn(-c2ccccc2)c(Cl)c1/C=N/OC(=O)c1ccc(Cl)c(Cl)c1
-4% | CCCCC(=O)NS(=O)(=O)c1ccc(NS(C)(=O)=O)cc1
6% | O=C(CCS(=O)(=O)Cc1ccccc1)NC1CCCCC1
13% | CCOC(=O)Cc1csc(NC(=O)Cc2ccccc2[N+](=O)[O-])n1
-1% | O=S(=O)(Nc1ccon1)c1cc(Cl)ccc1Cl
7% | CC(NC(=O)Cc1ccsc1)c1ccc(Cl)cc1Cl (centres undefined)
-12% | O=C(Nc1ccccc1)C1=C[C@@H](C2CC2)C[C@@H](OCc2ccc(CO)cc2)O1

Part of the list above in order of count of non-hydrogen atoms, lowest first.
VDR inhibitor | molecule
7% | CC(NC(=O)Cc1ccsc1)c1ccc(Cl)cc1Cl (centres undefined)
-4% | CCCCC(=O)NS(=O)(=O)c1ccc(NS(C)(=O)=O)cc1
-10% | O=C(c1ccc(COc2ccccc2)o1)N1CCN(S(=O)(=O)c2ccccc2Cl)CC1
1% | CCOC(=O)N1CCN(C(=O)CS(=O)(=O)c2cn(Cc3cccc(F)c3)c3ccccc23)CC1

An excerpt of these results, comma-delimited.
Structure,VDR inhibitor
O=S(=O)(Nc1ccon1)c1cc(Cl)ccc1Cl,-1%
CC(NC(=O)Cc1ccsc1)c1ccc(Cl)cc1Cl (centres undefined),7%
O=C(Nc1ccccc1)C1=C[C@@H](C2CC2)C[C@@H](OCc2ccc(CO)cc2)O1,-12%

The listing continues.
VDR inhibitor | molecule
-18% | CCn1c2ccccc2c2cc(NC(=O)COc3cc(C)ccc3C)ccc21
-14% | CCOCCn1c(SC(C)C(C)=O)nc2c1c(=O)[nH]c(=O)n2C (centres undefined)
0% | CCC(Cc1ccccc1)NC(=O)CSc1ccsc1[N+](=O)[O-] (centres undefined)
-14% | O=C(c1nn(Cc2ccccc2)c(=O)c2ccccc12)N1CCc2ccccc2C1
2% | O=C(CCNS(=O)(=O)c1ccc(OC(F)(F)F)cc1)Nc1cccc(S(=O)(=O)N2CCCC2)c1
-22% | CCOc1ccc(CNCCCSc2ncccn2)cc1OC
3% | COc1ccc(CCNc2nnc(C)c(=O)[nH]2)cc1OC
-4% | Cc1ccc(SCC(=O)N2CCc3ccccc32)cc1
-18% | NC(=O)C1CCCN(C(=S)Nc2ccccc2)C1 (centres undefined)
-14% | O=C(c1cc(C(F)(F)F)cc(C(F)(F)F)c1)N1CCC2(CCCN(c3ccncc3)C2)CC1
-1% | Cc1c(C(=O)NCCCc2ccccc2)cccc1[N+](=O)[O-]
11% | OC1(c2ccccn2)COc2ccccc2O1 (centres undefined)
? | FC(F)(F)Oc1ccc(Nc2nc(N3CCOCC3)nc(N3CCOCC3)n2)cc1
-8% | CC1CCc2c(sc(NC(=O)Cn3nnc(-c4ccc(C(F)(F)F)cc4)n3)c2C#N)C1 (centres undefined)
-1%&0% | CCCCCCCC/C=C\CCCCCCCC(=O)OC[C@@H](O)COP(=O)(O)O
-7% | O=C(NCCc1ccc(F)cc1)C1CCCO1 (centres undefined)
-2% | O=C(c1ccco1)N1CCN(C(=O)c2cnn(-c3ccc(Cl)cc3)c2C2CCNCC2)CC1
3% | C(=N\n1cnnc1)/c1ccccn1
5% | Cc1ccc(OC(=O)c2ccc(N3CCOCC3)c([N+](=O)[O-])c2)cc1
15% | CCc1c(C)sc(NC(=O)c2cc(-c3cc(OC)ccc3OC)on2)c1C#N
-4% | CC(=O)Oc1ccc2cc(-c3ccccc3)c(=O)oc2c1
-3% | Cc1ccc(C)c(N2CCN(CCCNC(=O)Cn3cc4c(n3)CCCCC4)CC2)c1
-3% | COc1ccc2[nH]c(C)c(C(=O)CN3CCOCC3)c2c1
1% | CCn1c(SCC(=O)N2CCC(C)CC2)nnc1-c1ccco1
-7% | Cc1ccc(/C([O-])=C(/C(=S)NCc2ccco2)[n+]2ccccc2)cc1[N+](=O)[O-]

Of the compounds above, 6 have an aryl thioether with sulfur outside any ring:
VDR inhibitor | molecule
-7% | CCn1c(SCC(=O)c2cc(C)n(C)c2C)nnc1-c1ccccc1
-14% | CCOCCn1c(SC(C)C(C)=O)nc2c1c(=O)[nH]c(=O)n2C (centres undefined)
0% | CCC(Cc1ccccc1)NC(=O)CSc1ccsc1[N+](=O)[O-] (centres undefined)
-22% | CCOc1ccc(CNCCCSc2ncccn2)cc1OC
-4% | Cc1ccc(SCC(=O)N2CCc3ccccc32)cc1
1% | CCn1c(SCC(=O)N2CCC(C)CC2)nnc1-c1ccco1

Continuation.
VDR inhibitor | molecule
-20% | CCOc1ccccc1CNC(=O)c1ccc(Sc2ccc(Cl)cc2)c(NC(C)=O)c1
4% | c1ccc(Nc2cccc3ccccc23)cc1
-1% | COc1ccc(S(=O)(=O)CCc2nnc(NC(=O)c3cccs3)s2)cc1
-9% | COc1cc(/C=C(/NC(=O)c2ccccc2)C(=O)N2CCOCC2)c([N+](=O)[O-])cc1OC
3% | N#CCSc1ccc(-c2nc3ccccc3[nH]2)cn1
21% | O=C(Cc1cn2ccsc2n1)Nc1nc2c(s1)CCCC2
-1% | S=C1NCCOCCOCCOCCOCCNC(=S)NCCOCCOCCOCCOCCN1
-2% | COCCCNC(=O)CCC(=O)N1Cc2cccc(OC)c2Oc2ncccc21
-12% | CCOc1ccccc1N(CC(=O)NC(C)(C)C)C(=O)c1ccc(CN2CCOCC2)o1
-12% | Cc1nn2c(N3CCN(C(=O)c4ccco4)CC3)cc(C(C)(C)C)nc2c1-c1ccccc1
-24% | CCOC(=O)c1ccc(N2C(=O)CC(N3CCC(Nc4ccc(F)cc4)CC3)C2=O)cc1 (centres undefined)
4% | O=C(Nc1ccc(F)c(Cl)c1)N1CCC(CN2CCc3ccccc3C2)CC1
-2% | CC(C)Cc1c(O)nc(SCCN2CCOCC2)[nH]c1=O
-23% | O=C(c1ccc2c(c1)N(Cc1ccccc1F)C(=O)c1ccccc1S2=O)N1CCCCC1 (centres undefined)
8% | Cc1nnc(N2CCCC(C(=O)NCc3ccccc3F)C2)c2nn(-c3ccc(Cl)cc3)c(C)c12 (centres undefined)
-3% | Cc1cc(SCc2cccc([N+](=O)[O-])c2)nc(=O)[nH]1
-8% | C=CCNC(=O)Cn1nc(-c2ccccc2)ccc1=O
14% | Cc1ccccc1-c1nnc(SCC(=O)NC2CCCC2)o1
6% | O=C(NCCO)c1cc2c([nH]c3ccccc32)c(-c2ccc(F)cc2)n1
-10% | C/C(CCc1ccco1)=N\NC(=O)CNc1cccc2ccccc12
14% | CCOc1ccc(-c2nnc(SCC(=O)NC3CC3)o2)cc1
3% | CCOC(=O)C1=C(c2ccccc2)OC(N)=C(C#N)C1c1ccc(Br)s1 (centres undefined)
? | Cc1ccc(CCN2CC(C(=O)NCCCN3CCC(C)CC3)CC2=O)cc1 (centres undefined)
10% | Cc1ccc(NCC(=O)NNC2=NCCC2)c(C)c1
-8% | Cc1cc(NC(=O)CSc2nc(=O)n(CCN(C)C)c3c2CCCC3)no1

VDR inhibitor | molecule
-3% | COc1ccc(CC(=O)Nc2nc3c(s2)CCCC3)cc1
6% | Cc1ccccc1NC(=O)c1cccc(NC(=O)CCC(=O)O)c1
21% | O=C(c1cc2ccccc2[nH]1)N1CCOCC1
10% | CCC(C(=O)c1ccc(O)cc1)c1ccccc1 (centres undefined)
-14% | Cc1cc(C)n(CCCNC(=O)C2CC(=O)N(Cc3ccccc3)C2)n1 (centres undefined)
-7% | O=C(CNC(=S)NC(=O)c1ccc(Br)o1)c1ccccc1
0% | CCOc1ccc(-c2nnc3ccc(SCC(=O)N4CCN(c5ccccc5)CC4)nn23)cc1
-1% | CCOc1cc2[nH]c(=O)n(Cc3ccc(C(=O)NCCCN4CCC(C)CC4)cc3)c(=O)c2cc1OCC
4% | O=C(CSc1ccc(F)cc1)N1CCC(c2nc3ccccc3s2)CC1
-4% | Cc1ccc(/C=C/C(=O)Nc2nc3ccccc3[nH]2)cc1
9% | CCOc1ccc(S(=O)(=O)N2CCC(C(=O)N3CCN(C)CC3)CC2)cc1Cl
3% | COc1ccc(N2CCN(C(c3cccs3)c3nnnn3C3CCCC3)CC2)cc1 (centres undefined)
-2% | COc1ccc(-c2noc(CCC(=O)N3CCN(c4cccc(Cl)c4)CC3)n2)cc1
-19% | Cc1ccc(C2(C)NC(=O)N(CC(=O)N3CCc4ccccc43)C2=O)cc1 (centres undefined)
-13% | CC(C)C(=O)NC(=S)Nc1ccccc1N1CCN(C(=O)c2ccc(Cl)cc2)CC1
-9% | O=C(CCN1CCCCCC1)Nc1ccc(F)cc1
10% | O=C1COc2ccccc2N1Cc1c(F)cccc1Cl
-6% | N#CCCN1CCN(S(=O)(=O)c2ccc(C3CCCCC3)cc2)CC1
-9% | Cc1ccc(C(=O)NNC(=O)c2ccc(S(=O)(=O)N3CCCCC3)cc2)cc1
14% | O=S(=O)(NCC(c1ccco1)N1CCN(c2ccc(F)cc2)CC1)c1ccc(F)cc1 (centres undefined)
-1% | CC(C)Cc1nnc(NS(C)(=O)=O)s1
-14% | CSc1cccc(NC(=O)c2cc(S(=O)(=O)N3CCc4ccccc43)cn2C)c1
-1% | Cc1ccc(-n2nc(C(=O)N3CCN(c4ccccc4)CC3)c(=O)n(C)c2=O)cc1
-22% | COc1ccc(/C=C2/NC(=O)N(Cc3ccccc3F)C2=O)cc1OC
-20% | O=[N+]([O-])c1ccc2nn(Cc3ccccc3)cc2c1

VDR inhibitor | molecule
-3% | Cc1ccc2c(CN3CCC(C)CC3)cc(=O)oc2c1
-2% | CC1CC(C)CN(CC(O)COCc2ccccc2F)C1 (centres undefined)
9% | O=C(CSc1nnc(C2CC2)n1Cc1ccccc1)NCc1ccccc1
10% | Cn1c(SCC(=O)Nc2ccc3c(c2)OCCO3)nnc1C(F)(F)F
47%[activator] | CCN1CCN(Cc2ccc(NC(=O)c3cc(NC(=O)c4cncc(-c5ccc(C#N)cc5)c4)cc(OC)c3)cc2C(F)(F)F)CC1
0% | COc1ccc(-c2cc(=O)oc3cc(OC(C)C(=O)NC4CC4)ccc23)cc1 (centres undefined)
14% | C[C@H](NC(=O)c1ccco1)C(=O)NNC(=O)c1ccc(F)cc1
13% | CN(C)c1c([N+](=O)[O-])ncn1C
-11% | CCOC(=O)c1cc2sccc2n1CC(=O)N1CCN(C(=O)c2ccco2)CC1
-4% | COC(=O)CCC(=O)Nc1cc(OC)c(OC)cc1Cc1nccc2cc(OC)c(OC)cc12
8% | Cc1ccc(NC(=O)CN2C(=O)S/C(=C/c3ccc(-c4cc(C(=O)O)ccc4C)o3)C2=O)cc1C
? | O=C(O)c1cccc(NC(=S)N/N=C/c2ccccc2OCc2ccc(Br)cc2)c1
5% | O=C(c1cc(-c2ccc(O)cc2)on1)N1CCOCC1
-20% | CC(C)c1ccc(C(=O)NC2=NCCS2)cc1
-1% | CSc1sc(C(=O)O)c2c1C(=O)CCC2
-7% | CCOc1cc(N2CCOCC2)c(OCC)cc1NC(=O)c1ccc(NC(C)=O)cc1
0% | CCCCn1c2ccc(F)cc2c2nnc(SCCN(CC)CC)nc21
3% | Fc1ccc(CN2CCc3nc(Nc4ccccc4)ncc3C2)cc1F
-7% | COC(=O)C(NNc1ccc(F)cc1)(NC(=O)c1ccccc1)C(F)(F)F (centres undefined)
6% | CC(=O)c1ccc(NC(=O)Cn2cnc3nc4c(cc3c2=O)CC(C)CC4)cc1 (centres undefined)
12% | COc1ccc2c(C)cc(SCC(=O)N(C)C3CCS(=O)(=O)C3)nc2c1 (centres undefined)
8% | Cc1cccc(N2CCN(C3(c4ccccc4)C(=O)c4ccccc4C3=O)CC2C)c1 (centres undefined)
7% | O=C(NCc1nnc2c(C(F)(F)F)cc(Cl)cn12)C1CCCC1
1% | COc1ccc(Br)c(C(=O)OCC(=O)N2CCc3ccccc32)c1
-4% | Cc1ccc2nc(N=C(N)N)nc(C)c2c1
-20% | COc1ccc(S(=O)(=O)N2CCC(NC(=O)c3cccc(F)c3)CC2)cc1
-19% | O=C(O)C1CC(=O)N(CCc2c[nH]c3ccccc23)C1 (centres undefined)

Screening results: PubChem BioAssay, National Center for Advancing Translational Sciences (NCATS)
